Screening data from PubChem.
GALR2 ag: activates the human galanin receptor 2; O43603; GALR2-expressing cells, agonist activation read-out; activation, %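 (tested at 5 µM)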; 0.48% of 140,000 active; AID 803;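 active = above mean plus 3 SD of all compounds, about 5% in these data, not always enough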;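 also: 0% = vehicle buffer wells and 100% = reference agonist at full effect; tested in CHO reporter cells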
RGS16-Gao HTS: modulates binding between human RGS16 and Galphao; 0.38% of 220,000 active; bead-based flow cytometry RGS16-Galphao binding, fluorescence; actives lie on both sides; AID 1441; binding response (% of control), % at 10 µM;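 active = below 25% or above 175%, edge rows of some plates excepted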;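 also: Galphao activated by GDP with aluminum fluoride before binding; 100% = wells without compound and 0% = beads without RGS; some results beyond the cut were filed as inactive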
INS promoter inh: TRM-6 insulin promoter activity inhibition | TRM-6 cells (human fetal islet line), insulin promoter-eGFP reporter, imaging; reporter expression induced with tamoxifen | inhibition, % at 2 µM | 0.9% of 130,000 active | AID 1273;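 active = inhibition above the mean plus 3 SD, with well images judged a real hit on visual review, cut at about 60% in these data, passing the limit was not always enough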
HSV augment: increases HSV replication in cells. HSV replication augmentation in cells, fold increase. 0.005% of 220,000 active. AID 1956. maximum fold increase;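 active = peak rise of 1.5-fold or more in the series; tested in PC3 cells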;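 also: first round at 10 µM; read as green reporter fluorescence; hits show the peak of a series up to 25 µM; 1 = signal of infected wells without compound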
PKD1 inh: PKD1 (human) kinase inhibition; PKD1 kinase fluorescence polarization assay; 0.056% of 200,000 active; inhibition, %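 (about 10 µM by stock and volumes)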; AID 797; Q15139;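 active = inhibition of 50% or more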;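 also: controls were vehicle for no effect and a reference inhibitor for full effect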
Target sequence (Q15139 whole entry, looked up): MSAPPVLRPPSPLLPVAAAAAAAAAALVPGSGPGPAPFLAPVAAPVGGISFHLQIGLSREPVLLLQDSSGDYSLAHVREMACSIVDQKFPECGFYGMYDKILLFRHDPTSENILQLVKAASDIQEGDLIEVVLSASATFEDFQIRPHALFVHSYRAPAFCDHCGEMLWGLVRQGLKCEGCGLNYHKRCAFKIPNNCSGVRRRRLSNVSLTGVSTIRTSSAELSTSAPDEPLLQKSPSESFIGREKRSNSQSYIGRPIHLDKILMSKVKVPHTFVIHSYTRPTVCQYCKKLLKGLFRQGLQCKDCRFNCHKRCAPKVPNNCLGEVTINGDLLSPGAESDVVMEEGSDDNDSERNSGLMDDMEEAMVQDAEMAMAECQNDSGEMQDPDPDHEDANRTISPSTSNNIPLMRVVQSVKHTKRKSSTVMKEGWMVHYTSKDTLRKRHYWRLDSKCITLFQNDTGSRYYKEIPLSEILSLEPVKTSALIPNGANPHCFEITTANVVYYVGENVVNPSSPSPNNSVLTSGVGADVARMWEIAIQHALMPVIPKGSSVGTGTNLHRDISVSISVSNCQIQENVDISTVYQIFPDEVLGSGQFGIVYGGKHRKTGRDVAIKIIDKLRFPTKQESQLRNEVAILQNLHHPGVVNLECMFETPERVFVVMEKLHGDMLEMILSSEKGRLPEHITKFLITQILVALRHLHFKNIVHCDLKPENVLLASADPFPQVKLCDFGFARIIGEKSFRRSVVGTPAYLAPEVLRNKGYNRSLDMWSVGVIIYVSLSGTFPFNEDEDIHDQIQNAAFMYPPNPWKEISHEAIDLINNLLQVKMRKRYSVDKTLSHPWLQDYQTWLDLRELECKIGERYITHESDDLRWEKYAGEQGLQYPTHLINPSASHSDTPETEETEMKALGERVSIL
INS promoter inh cell count: also measured in INS promoter inh; calls as there; normalized cell count, %; measured here: cell count, toxicity; reference of the scale not given here;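 cells exposed to compound for 48 h; stained nuclei by imaging scaled within each plate; lower means fewer cells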
HSV augment primary fold: further read-out of HSV augment, marked with its call; fold increase; compound at 10 µM; measured here: primary screen fold increase 10 uM; tested in PC3 cells;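 GFP signal in the first replicate; 1 = infected wells without compound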
Numbers without * were called inactive; i = inactive; x = no result given.

molecule	HSV augment primary fold	INS promoter inh	GALR2 ag	PKD1 inh	HSV augment	INS promoter inh cell count	RGS16-Gao HTS
CCCn1nc(C(=O)Nc2ccc(S(=O)(=O)Nc3ncccn3)cc2)c2ccccc2c1=O	1.1	x	x	x	i	x	98
NS(=O)(=O)c1ccc(CCNC(=O)c2ccc([N+](=O)[O-])cc2[N+](=O)[O-])cc1	0.98	-6	x	3	i	105	96
Cc1cc(-c2nc3ncccc3o2)ccc1N	0.81	-50	-0.9	-10	i	203	89
OC(COc1ccc2c(c1)OCO2)CN1CCN(c2ccc(F)cc2)CC1 (stereo not given)	1	x	x	-10	i	x	107
CCc1nnc(NS(=O)(=O)c2ccc(NC(=O)c3ccc(Cl)cc3)cc2)s1	0.98	x	x	-3	i	x	102
CC(C)C1N(C(N)=S)N=CC1(C)C (stereo not given)	0.93	x	x	x	i	x	111
C=CCN1c2ccccc2[C@]23C[C@@H](C(=O)OC)N(C(=O)c4cc(C)oc4C)C2=NC(C(=O)OC)=C(C(=O)OC)[C@H]13	0.79	x	x	x	i	x	103
O=C(Nc1ccc(C(=O)O)cc1)/C(=C\c1ccc2c(c1)OCO2)NC(=O)c1ccc(Br)o1	0.89	-7	x	-1	i	124	104
Cc1cn(S(=O)(=O)c2ccc(Cl)cc2)c(C)n1	1.1	x	x	-10	i	x	98
Cc1[nH]c2ccccc2c1CCN(Cc1cccnc1)C(=S)Nc1cccc(F)c1	0.84	-36	x	-9	i	201	104
O=C(Cc1cccc2ccccc12)N/N=C/C=C/c1cccc([N+](=O)[O-])c1	1.1	x	-1.1	-8	i	x	101
Fc1ccc(-c2nnc3sc(C4COc5ccccc5O4)nn23)cc1 (stereo not given)	0.94	-6	-3.1	-3	i	108	115
c1ccc(Oc2cccc(NC3=NCCC3)c2)cc1	0.9	x	-1.6	-9	i	x	84
Cc1ccc(OCc2ccc(C(=O)NCC3CCCO3)cc2)cc1 (stereo not given)	0.99	x	x	-3	i	x	103
CCc1ccc(N2C(=O)C3C(C2=O)N2CCCN2C3c2ccccc2)cc1 (stereo not given)	1.2	x	x	x	i	x	95
CC(C)(C)c1ccccc1NC(=S)NC1CCCCC1	0.92	-25	x	-9	i	97	98
Cc1ccc(C(=O)OCC(=O)Nc2ccc(N(C)C)cc2)cc1NC(=O)c1ccco1	0.97	-5	-1.8	-4	i	136	100
CCOC(=O)/C(=N\Nc1cc(Cl)ccc1Cl)N1CC(C)OC(C)C1 (stereo not given)	0.92	x	x	x	i	x	101
COc1ccc2[nH]c(=O)c(CN(C(=O)C3CCCO3)c3ccc(C)cc3)cc2c1 (stereo not given)	0.95	-6	1.3	7	i	149	102
COc1ccc(S(=O)(=O)N2CCC(C(=O)N3CCN(c4ccccc4OC)CC3)CC2)cc1	0.95	-32	0.5	-2	i	144	107
CC(=O)N(C)c1nc(-c2ccc(Cl)cc2)cs1	0.93	33	-3.7	-3	i	89	103
COC(=O)c1cc(=O)n(-c2ccc(C(F)(F)F)cc2)[nH]1	0.99	x	x	x	i	x	99
Cc1onc(-c2ccccc2Cl)c1C(=O)N1CCN(c2cccc(Cl)c2)CC1	0.59	x	x	-2	i	x	101
ON1C(c2ccc(Cl)cc2Cl)N(O)[C@H]2CCCC[C@H]21 (stereo not given in full)	0.93	16	-2.5	-19	i	73	-65
CC(SCCc1ccccn1)C(=O)O (stereo not given)	1	-13	-2.2	3	i	86	106
O=C(NC(=S)NCC1CCCO1)c1ccccc1Br (stereo not given)	1.1	-13	-1.7	-1	i	110	96
Cc1sc2c(c1C)CN(Cc1ccncc1)CN2C(=O)c1ccco1	0.91	13	-2.8	0	i	61	101
CN1C(C)(C)CC(=NOC(=O)c2ccccc2)CC1(C)C	1.1	x	-2.7	-1	i	x	101
O=C(c1ccco1)c1nc2c(n1O)CCCCC2	0.88	8	-0.9	2	i	106	86
COc1ccc(F)cc1S(=O)(=O)N1CCN(Cc2ccc3c(c2)OCO3)CC1	0.99	14	-1.8	-8	i	72	100

Looked up above:
Under HSV augment primary fold, CC(C)C1N(C(N)=S)N=CC1(C)C (stereo not given) is listed with 0.93
Under HSV augment primary fold, CCc1nnc(NS(=O)(=O)c2ccc(NC(=O)c3ccc(Cl)cc3)cc2)s1 is listed with 0.98

The listing continues.
molecule	HSV augment primary fold	INS promoter inh	GALR2 ag	PKD1 inh	HSV augment	INS promoter inh cell count	RGS16-Gao HTS
CC(=O)Oc1c(C(=O)c2nnc(C)o2)c(=O)n(Cc2ccccc2)c2ccccc12	1.1	11	-1.4	-10	i	66	118
CCOc1cc(CN2CCSCC2)ccc1O	0.72	-72	-0.7	-13	i	46	103
CN(C)/C=C(\C#N)C(=O)N/N=C/c1ccc(Cl)cc1	0.9	9	x	0	i	85	114
CCCS(=O)(=O)N1CCCC(C(=O)NCC(OC)OC)C1 (stereo not given)	0.89	x	x	-6	i	x	111
Cc1ccc(-c2nc(CSCC(=O)NCCCN3CCOCC3)c(C)o2)cc1	1	x	-3.0	-3	i	x	88
Cc1nnc(SCC(=O)N2CCN(S(=O)(=O)c3ccccc3)CC2)[nH]c1=O	1	-15	-1.1	-10	i	179	101
Cc1nc2ccccc2c2oc(C(=O)NCC3COc4ccccc4O3)cc12 (stereo not given)	1.2	x	-0.4	-9	i	x	98
C=CCOc1ccccc1/C=c1\sc2nc(=O)c(C)nn2c1=O	0.85	-43	-1.1	-3	i	126	103
COC(=O)C1CCN(C(=O)Cc2ccc(OC)c(OC)c2)CC1	1.1	10	-2.6	-2	i	177	106
CCC(C)NCCOc1cc(C)cc(C)c1C (stereo not given)	0.92	x	x	-5	i	x	107
O=C(Nc1ccc(F)cc1)c1ccc(COc2ccccc2)cc1	0.89	23	3.1	1	i	136	105
COc1ccc(Cn2c(=O)c3[nH]cnc3n(-c3ccc(C)cc3)c2=O)cc1	1	x	x	x	i	x	137
O=C1CC(C(=O)N2CCOCC2)C2(CCCCC2)O1 (stereo not given)	0.8	58	-0.1	-9	i	118	96
COC(=O)C1=C(C)NC2=C(C(=O)CCC2)C1c1cn(Cc2ccc(Cl)cc2Cl)nc1-c1ccccc1 (stereo not given)	0.61	x	2.4	-4	i	x	108
Cn1c(CSCc2ccc(Cl)c(Cl)c2)nnc1SCC(=O)Nc1nccs1	1	-47	-0.5	-4	i	105	98
CCn1c(CSc2nc3ccccc3[nH]2)n[nH]c1=S	1.1	-8	-0.9	-1	i	84	100
COC(=O)c1c(=O)n(O)c2ccc(OC)cc2[n+]1[O-]	1.1	x	-0.2	-3	i	x	106
Clc1ccccc1-c1nnc(-c2ccccc2Cl)o1	0.85	-62	1.9	11	i	127	101
COc1ccc(C(=O)C2CCCN(C(=O)c3noc4c3CCCC4)C2)cc1F (stereo not given)	0.91	x	x	5	i	x	104
CCN(CC)C(=O)c1ccc(COc2ccccc2Cl)cc1	0.89	11	-1.6	-6	i	67	92
CCn1c(OC)nc2c1c(=O)n(C)c(=O)n2C	0.97	-91	x	-7	i	136	101
Nc1nonc1NN=C1CCCCC1	0.82	x	x	x	i	x	97
c1ccc(-c2nnc3sc(CN4CCC5(CC4)OCCO5)cn23)cc1	0.94	x	-0.8	-8	i	x	92
O=C(NCc1ccco1)C(Cc1ccccc1)N1C(=O)c2ccccc2C1=O (stereo not given)	0.99	43	-0.2	2	i	116	105
O=C(NCCCN1CCOCC1)c1ccc(-c2ccc(Cl)cc2)o1	0.81	x	x	-6	i	x	145
CCCCCc1nnc(NC(=O)CS(=O)(=O)Cc2ccccc2)s1	0.72	0	-3.0	-11	i	20	103
Cc1ccc(Cn2nc(-c3ccccc3)nc2-c2ccccc2)cc1	x	32	-4.0	-13	x	108	100
CCCNC(=O)c1nc(C)n(-c2ccc([N+](=O)[O-])cc2)n1	0.87	x	x	-4	i	x	106
CCOc1ccccc1NC(=O)Nc1ccccn1	1	x	x	x	i	x	105
CC(Sc1nc2ccccc2s1)C(=O)Nc1ccc2c(c1)OCO2 (stereo not given)	1.1	11	0.2	-4	i	97	94

An excerpt from above with just GALR2 ag, HSV augment primary fold and INS promoter inh cell count:
Structure	GALR2 ag	HSV augment primary fold	INS promoter inh cell count
CCCNC(=O)c1nc(C)n(-c2ccc([N+](=O)[O-])cc2)n1	x	0.87	x
C=CCOc1ccccc1/C=c1\sc2nc(=O)c(C)nn2c1=O	-1.1	0.85	126
COC(=O)C1=C(C)NC2=C(C(=O)CCC2)C1c1cn(Cc2ccc(Cl)cc2Cl)nc1-c1ccccc1 (stereo not given)	2.4	0.61	x
Cc1ccc(Cn2nc(-c3ccccc3)nc2-c2ccccc2)cc1	-4.0	x	108
CCn1c(OC)nc2c1c(=O)n(C)c(=O)n2C	x	0.97	136

In another format: results already given
Results follow in this order: HSV augment primary fold, INS promoter inh, GALR2 ag, PKD1 inh, HSV augment, INS promoter inh cell count, RGS16-Gao HTS
Cc1ccc(Cn2nc(-c3ccccc3)nc2-c2ccccc2)cc1
  x, 32, -4.0, -13, x, 108, 100
CCCNC(=O)c1nc(C)n(-c2ccc([N+](=O)[O-])cc2)n1
  0.87, x, x, -4, i, x, 106
CCOc1ccccc1NC(=O)Nc1ccccn1
  1, x, x, x, i, x, 105
CC(Sc1nc2ccccc2s1)C(=O)Nc1ccc2c(c1)OCO2 (stereo not given)
  1.1, 11, 0.2, -4, i, 97, 94

(listing goes on)
molecule	HSV augment primary fold	INS promoter inh	GALR2 ag	PKD1 inh	HSV augment	INS promoter inh cell count	RGS16-Gao HTS
COc1ccc(S(=O)(=O)N2CCCCC2)cc1Br	1	31	-1.8	-4	i	140	105
O=C(CN(Cc1ccccc1F)S(=O)(=O)c1ccc(Cl)cc1)NCCC1=CCCCC1	0.96	-47	-1.3	-7	i	85	101
CCOC(=O)c1c(NC(=O)CCN2CCOCC2)sc(C)c1-c1ccccc1	0.98	x	x	-3	i	x	106
COCCn1c(=O)[nH]c2cc(C(=O)NCCc3ccc(S(N)(=O)=O)cc3)ccc2c1=O	0.95	x	x	-1	i	x	101
CSc1nc(=S)c2[nH]c(=S)[nH]c2[nH]1	0.92	x	x	x	i	x	70
O=C(C=C1CCN(c2ncc(C(F)(F)F)cc2Cl)CC1)NNC(=O)Nc1ccc(Cl)cc1	0.92	-17	-2.4	-12	i	107	110
O=C(Nc1cccc([N+](=O)[O-])c1)c1ccc(-c2ccccc2)cc1	0.96	-7	0.7	-1	i	100	100
O=C(OCn1nnc2ccccc2c1=O)c1cccs1	0.73	-14	-0.9	-16	i	148	102
Cc1ccc(CSc2nnc(-c3ccc(S(=O)(=O)N4CCCC4)cc3)o2)cc1	0.65	-3	-1.8	-1	i	110	102
O=C(NCCCN1CCCC1=O)c1ccccc1NS(=O)(=O)c1ccc(F)cc1	1.1	18	-0.1	-10	i	118	90
O=C(Nc1nnc(COc2ccc(Cl)cc2)s1)c1ccc([N+](=O)[O-])cc1	0.76	50	-1.7	-17	i	144	97
